HPGD block: qHTS Assay for Inhibitors of HPGD (15-Hydroxyprostaglandin Dehydrogenase); Potency, µM, for the others: top-dose activity change, negative = inhibition, actives largely listed as inhibitors; AID 894, 2007; hit rate 4.3% among 150,000; 15-hydroxyprostaglandin dehydrogenase [NAD(+)] (Homo sapiens), P15428; purified HPGD, NADH fluorescence kinetic, PGE2 substrate; active = well fitted inhibition curve with a large enough effect (not every such curve was filed as active); inconclusive = small, poorly fitted or top-dose-only effect, or another doubt; inactive = no such curve, though single readings can be large or run the other way;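 further: top concentration of the series not given in the record; plate controls included wells without enzyme; inactives centre near -10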
Target sequence (P15428 whole entry, looked up): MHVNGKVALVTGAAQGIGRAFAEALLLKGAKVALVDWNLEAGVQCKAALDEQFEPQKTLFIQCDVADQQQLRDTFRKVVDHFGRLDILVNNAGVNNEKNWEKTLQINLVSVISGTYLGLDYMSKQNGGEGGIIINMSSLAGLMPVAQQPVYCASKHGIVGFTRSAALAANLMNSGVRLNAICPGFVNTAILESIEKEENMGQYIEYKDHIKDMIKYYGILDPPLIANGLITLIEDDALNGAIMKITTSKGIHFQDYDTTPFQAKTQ
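20 nM HPGD preincubated 15 min at room temperature with compound in 50 mM Tris-HCl pH 8, 0.01% Tween 20. Started with 1 mM NAD+ and 30 uM prostaglandin E2; NADH fluorescence (360/450 nm) read 5 times over 30-s intervals, last minus first.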
* marks the source's active call; other numbers are inactive results; ? = inconclusive; & = joins results of further samples. On the % scale 0 is the no-effect control and ±100 the full control effect; potency means the concentration at half of the fitted maximal effect.

SMILES | HPGD block
CC[C@H](C)C(=O)O[C@H]1C[C@H](O)C=C2C=C[C@H](C)[C@H](CC[C@@H](O)C[C@@H](O)CC(=O)O)[C@H]21 | -3.8%
O=S(=O)(c1ccccc1)N1CCN(S(=O)(=O)c2ccccc2)C1 | -7.3%
Cc1ccc2nc(-c3ccc(NC(=O)CN4CCN(C(=O)c5ccco5)CC4)cc3)sc2c1 | ?
O=C(CSc1ncccn1)n1c2c(c3ccccc31)CCCC2 | -21.0%
O=C(O)C1CCN(c2ncccn2)CC1 | -19.4%
CCOC(=O)C(CCCCCOc1ccccc1[N+](=O)[O-])C(=O)OCC | -7.0%
c1ncc(CC2CCNCC2)[nH]1 | -0.8%
O=[N+]([O-])c1ccc2sc(SCc3nc4ccccn4c3Br)nc2c1 | -6.6%
Cc1cc(C)nc(N=Nc2c(O)n(Cc3ccc(Cl)cc3)c3ccccc23)n1 | -5.5%
O=c1cc[nH]c(=S)[nH]1 | -9.8%
O=S(=O)(NCCc1ccncc1)c1cc(Br)ccc1F | 0.3%
Cc1cc(C(C#N)c2ccccc2)n2ncnc2n1 (centres undefined) | -7.1%
CCN(CC)S(=O)(=O)c1ccc(-c2nnc(SCC(=O)N3c4ccccc4CC3C)n2CC)cc1 (centres undefined) | -7.8%
Cc1ccc(NC2=C/C(=N/S(=O)(=O)c3cccs3)c3ccccc3C2=O)cc1C | -6.0%
Cc1cc(C)c2cc(CN(CCO)C(=O)Nc3ccc(F)cc3)c(=O)[nH]c2c1 | -9.1%
COC(=O)c1cc[n+](CC(=O)c2ccccc2)cc1 | -4.9%
CN1CCN(/N=C/c2nc(-c3ccccc3Cl)n3ccccc23)CC1 | -13.9%
O=C(Nc1ccccc1)N(CCN1CCOCC1)Cc1ccccc1F | -9.7%
COc1ccccc1C1=NOC(COC(=O)c2ccc(Br)cc2)C1 (centres undefined) | -5.5%
Cc1ccc(CNc2ccc3c(c2)OCO3)c(C)c1 | -3.9%
O=C(c1ccccc1S(=O)(=O)NCC(O)COc1ccc([N+](=O)[O-])cc1)N1CCCCC1 (centres undefined) | -13.2%
CC(C)CC(=O)NCCCCc1ccccc1 | 15.8µM*
CCS(=O)(=O)N1CCCC(C(=O)NCC2CCCO2)C1 (centres undefined) | -5.8%
Cc1cccc(-c2nc3cc(NC(=O)C4CCCO4)ccc3o2)c1 (centres undefined) | ?
Cn1nc(C(=O)Nc2ccc(S(=O)(=O)N3CCCC3)cc2)ccc1=O | -6.5%
Cc1cc(/C=N/n2c(COc3ccccc3)nc3ccccc3c2=O)c(O)c([N+](=O)[O-])c1 | ?
Cn1c(/N=C/c2cccs2)nc2ccccc21 | -21.5%
COc1cccc(N(CC(=O)N2CCc3ccccc3C2)S(C)(=O)=O)c1 | -5.2%
CC(=O)Nc1nnc(SCC(=O)NCCOc2ccccc2)s1 | -3.6%
Clc1ccc(OCCn2cnc3ccccc32)cc1 | 5.6%
CCOc1ccccc1-n1c(SCC(=O)N2CCOCC2)nnc1-c1ccccn1 | -0.2%
CCOc1cccc(C2c3c(oc4ccccc4c3=O)C(=O)N2c2ccccn2)c1 (centres undefined) | -1.0%
CCOc1cc(S(=O)(=O)NC2CCCCCC2)ccc1F | 25.1µM*
CCOC(=O)C(CC)Sc1nc2c(cnn2-c2ccccc2)c(=O)[nH]1 (centres undefined) | -5.8%
COc1cc(OC)cc(-n2c3nc4ccccc4nc3c3c(=O)n(CC4CCCO4)cnc32)c1 (centres undefined) | -7.3%
CCOC(=O)Nc1ccc(NC(=O)OCC)cc1 | -18.5%
Brc1csc(C=Nc2ccc3c(c2)OCCOCCOCCOCCO3)c1 | -8.3%
Cc1cccc(NC(=S)NC(=O)CCc2ccccc2)c1C | -28.0%
COC(=O)c1cc2oc3ccccc3c2n1Cc1ccccn1 | ?
Cc1cc(NS(=O)(=O)c2cccs2)no1 | 0.8%
COCCOC(=O)C1=C(C)NC(C)=C(C(=O)OC(C)C)C1c1cccc([N+](=O)[O-])c1 (centres undefined) | -13.8%&-9.8%&-12.4%
CCOC(=O)c1c(C)[nH]c(C(=O)COC(=O)COc2ccc(OC)cc2)c1C | 2.0%
C[N+]1(CCCOC(=O)C2(c3ccccc3)CCCC2)CCOCC1 | -5.1%
O=C(Cn1c(=O)n(CCCC(=O)NC2CCCC2)c(=O)c2ccccc21)NCCC1=CCCCC1 | ?
CCCSc1nnc(NC(=O)c2nc(SC)ncc2Cl)s1 | -7.7%
COc1cccc(-n2nnc3c(=O)n(Cc4ccc(Br)cc4)cnc32)c1 | -16.9%
CC(=O)Nc1cccc(-c2csc(Nc3cc(C)ccn3)n2)c1 | -18.0%
Cc1ccc(SCC(=O)NCc2cccnc2)cc1 | -6.0%
CSc1nnc(C)c(=O)[nH]1 | -10.2%
Cc1cccc(OCC(=O)O/N=C(\N)c2ccc(Cl)cc2)c1 | -1.8%
Cc1ccnc(NC(=O)CCCOc2cc(=O)n(C)c3ccccc23)c1 | -10.5%
CCOCCCNC(=O)CC1Oc2ccc(C)cc2NC1=O (centres undefined) | -1.2%
COC(=O)[C@@]1(Cc2ccc(F)cc2)[C@H]2c3cc(C(=O)N(C)C)n(CCO)c3C[C@H]2CN1C(=O)c1ccccc1 | -1.7%
Cc1n[nH]c(C)c1S(=O)(=O)Nc1ccc2c(c1)OCCO2 | -11.9%
COCCn1c(SCc2cnc(-c3ccccc3)s2)nnc1-c1ccncc1 | -9.2%
Cc1nn(Cc2c(F)c(F)c(F)c(F)c2F)c(C)c1NC(=O)c1ccc(COc2ccccc2Cl)o1 | -21.1%
COc1cccc(NC(=O)CN(c2cccc(F)c2)S(C)(=O)=O)c1 | -8.2%
O=c1onc2cnc3ccccc3n12 | ?
CCCCNC(=S)NNC(=O)CCn1cc(C)cn1 | -3.6%
O=c1cc(CSc2ccccc2)[nH]c(=S)[nH]1 | -11.0%
New compounds follow.
SMILES | HPGD block
CN1CCN(C2=C(Cl)C(=O)N(CCc3ccccc3)C2=O)CC1 | -11.8%
COC(=O)c1nc2n(n1)C(c1ccc(OC)c(OC)c1)C(C(=O)OC1CCCCC1)=C(C)N2 (centres undefined) | -1.8%
O=C(CCN1C(=O)c2ccccc2C1=O)NC(=S)Nc1cccc(Cl)c1 | -8.4%
O=C(NNC(=O)c1ccco1)c1ccccc1 | -8.8%
Cc1cccc(/C=N/NC(=O)C2CCCNC2=O)c1 (centres undefined) | 1.9%
C/C(=N/Nc1nc(C)cc(-c2ccccc2)n1)c1ccco1 | -10.8%
O=C(c1cccnc1)N(Cc1ccccc1)c1ccccc1 | -7.2%
COc1ccc(C2CC(c3ccccc3)Nc3nc(NC(=O)c4ccco4)nn32)cc1 (centres undefined) | -8.7%
COc1cccc2c1OC1(C)CC2N(C(=O)c2ccco2)C(=S)N1c1ccc(F)cc1 (centres undefined) | 1.3%
CCSc1nnc(NC(=O)CSc2nnc(CNC(=O)c3ccc(OC)c(OC)c3)o2)s1 | -16.2%
Cc1nc2ncnn2c(Nc2ccc3c(c2)OCO3)c1Cc1ccccc1 | -8.9%
Cc1nc2ccccc2c2oc(C(=O)NCCN3CCCCC3C)cc12 (centres undefined) | -5.7%
COC(=O)c1cccc(Nc2ncnc3ccc(C)cc23)c1 | ?
CCOC(=O)c1c(N)c(C#N)cn1-c1ccccc1 | 0.4%
COC(=O)CC1SC(=O)NC1=Nc1cccc(C)c1 (centres undefined) | -8.3%
CCOc1cc2[nH]c(=S)n(CCCN3CCCC3=O)c(=O)c2cc1OCC | -15.6%
COc1ccc(Br)cc1/C=C/C(=O)Nc1c(C)cccc1C | -9.6%
Cc1ccc(S(=O)(=O)c2cc3c(=O)n4cc(C)ccc4nc3n(CC3CCCO3)c2=N)cc1 (centres undefined) | -15.8%
CC(C)(C)n1nnnc1C(c1ccc(C(F)(F)F)cc1)N(Cc1ccc(F)cc1)Cc1ccco1 (centres undefined) | -10.1%
CC12CCC(c3c(C(=O)O)nn(-c4ccc(F)cc4)c31)C2(C)C (centres undefined) | -2.7%

2 of these compounds, set out differently.
structure,HPGD block
Cc1ccc(S(=O)(=O)c2cc3c(=O)n4cc(C)ccc4nc3n(CC3CCCO3)c2=N)cc1 (centres undefined),-15.8%
CC(C)(C)n1nnnc1C(c1ccc(C(F)(F)F)cc1)N(Cc1ccc(F)cc1)Cc1ccco1 (centres undefined),-10.1%

Later entries:
SMILES | HPGD block
CCOC(=O)C(CC)/C(C)=N\NC(=O)c1ccccc1O (centres undefined) | ?
Cc1nc2nc(COc3ccccc3)[nH]n2c(=O)c1Cc1ccccc1 | -6.0%
CCOC(=O)Cc1nnc(Nc2cccc(O)c2)c2ccccc12 | -9.6%
COc1ccc(C(=O)Nc2cccc(N(C)S(C)(=O)=O)c2)cc1OC | 1.9%
Cc1c(Cl)cccc1N1C(=O)CC(N(O)c2ccccc2)C1=O (centres undefined) | -1.8%
CC1=NN(C(=O)Cn2nc([N+](=O)[O-])cc2C)C(O)(C(F)(F)F)C1 (centres undefined) | 2.7%
COc1ccccc1N1CCN(C(=O)Cn2nnc(-c3cccs3)n2)CC1 | -9.6%
O=C(O)COc1c(Cl)cc(Cl)c2cccnc12 | -8.1%
Cc1cc(C)n(-c2nc3ccccc3c(=O)n2OCC(=O)Nc2c(C)cccc2C)n1 | 4.6%
O=C(COC(=O)c1cn(-c2ccccc2)nc1-c1ccc(F)cc1)Nc1ncc(Cl)cc1Cl | -2.4%
CN(C1CCCCC1)S(=O)(=O)c1ccc(S(=O)(=O)N2CCN(C(=O)c3ccccc3F)CC2)cc1 | -11.4%
CCCC(c1nnnn1CCc1ccccc1)N1CCC(C(N)=O)CC1 (centres undefined) | -14.9%
CCOC(=O)N1CCN(C(=O)CS(=O)(=O)c2cn(Cc3ccc(Cl)cc3)c3ccccc23)CC1 | 0.5%
COC(=O)CN1C(=O)CC(C)(C)Sc2ccccc21 | -0.7%
Nc1ccc(-c2cnc(-c3ccc(N)cc3)nc2)cc1 | ?
COc1ccc(OCc2nnc(SCC(N)=O)n2N)cc1 | 2.5%
COc1cc(NC(=S)N2CCN(c3ccccn3)CC2)c(OC)cc1Cl | 28.2µM*
COC(=O)c1cc2c(ccn2-c2ccc(F)cc2)n1Cc1ccc(OC)cc1 | ?
Cc1ccc2ncnc(NCCC(=O)O)c2c1 | -10.4%
Cc1ccc(-c2nc(NC(=O)CSc3nnnn3-c3ccccc3)ns2)cc1 | ?

Looked up by compound from the entries so far (6):
SMILES | HPGD block
O=C(O)COc1c(Cl)cc(Cl)c2cccnc12 | -8.1%
CCOC(=O)N1CCN(C(=O)CS(=O)(=O)c2cn(Cc3ccc(Cl)cc3)c3ccccc23)CC1 | 0.5%
COC(=O)c1cc2c(ccn2-c2ccc(F)cc2)n1Cc1ccc(OC)cc1 | ?
COc1ccc(C(=O)Nc2cccc(N(C)S(C)(=O)=O)c2)cc1OC | 1.9%
CC1=NN(C(=O)Cn2nc([N+](=O)[O-])cc2C)C(O)(C(F)(F)F)C1 (centres undefined) | 2.7%
Cc1c(Cl)cccc1N1C(=O)CC(N(O)c2ccccc2)C1=O (centres undefined) | -1.8%

More entries.
SMILES | HPGD block
C/C(=C\C(=O)OCC(=O)NCc1ccccc1)C(=O)OCC(=O)NCc1ccccc1 | -12.8%
Cc1ccccc1N1C(=O)c2cc(S(N)(=O)=O)c(Cl)cc2N[C@H]1C | -27.2%
Cc1ccc2c(c1)C(c1ccc(F)cc1)N(C(=O)c1cc3ccccc3oc1=O)CC(=O)N2 (centres undefined) | -5.8%
Cc1nc2oc3c(NCc4ccccc4)ncnc3c2c2c1COC(C)(C)C2 | ?
O=C(CSC(=S)N1CCN(c2ccccc2)CC1)Nc1nc(-c2ccccc2)c(-c2ccccc2)o1 | -12.0%
CN(C(N)=S)c1ccccc1 | -1.4%
Cc1ccnc(NC(=O)C2CCCN(S(=O)(=O)c3cnc[nH]3)C2)c1 (centres undefined) | 2.1%
CC(NC(=O)COC(=O)CCc1ccc(S(=O)(=O)N2CCOCC2)cc1)C1CC2CCC1C2 (centres undefined) | -4.4%
Cc1cc(Nc2ccc(F)cc2Cl)n2nc(C)nc2n1 | -7.3%
Cc1cc(C)n(-c2ccc(C(=O)OCC(=O)Nc3ccc(S(=O)(=O)N4CCOCC4)cc3)cc2)n1 | -11.4%
CN(C(=S)Oc1ccc(C(=O)Nc2ccccc2)cc1)c1ccccc1 | -23.6%
COc1cc(C(=O)NC(=S)Nc2ccc3oc(=O)ccc3c2)cc(OC)c1OC | -6.6%
CCOC(=O)C(NC(=O)CC(C)C)(Nc1sc(C)c(CC)c1C#N)C(F)(F)F (centres undefined) | -3.2%
COC(=O)c1sccc1NC(=O)c1ccc2c(c1)OCO2 | ?
CCCCCCn1c(N2CCC(C)CC2)nc2c1c(=O)[nH]c(=O)n2C | -17.2%
Cc1ccc(-c2noc(CCCOc3ccc(Cl)cc3Cl)n2)cc1 | -15.7%
COC(=O)C1=C(C)NC2=C(C(=O)CC(C)(C)C2)C1c1ccccn1 (centres undefined) | ?
O=C(C1CCN(S(=O)(=O)c2ccc(Br)s2)CC1)N1CCc2ccccc21 | -3.1%
Cc1cccc(C(=O)Nc2cccc(OC(=O)c3cccc(C)c3)c2)c1 | -2.8%
O=C(c1ccccc1)c1cccn1CC(=O)N1CCCCCC1 | -10.2%
C=CCn1c(COc2ccc(Cl)cc2)nnc1SCC(=O)N/N=C/c1ccccc1 | -0.5%
CC(C)C(=O)Nc1ccccc1C(=O)N/N=C/c1ccc([N+](=O)[O-])cc1 | -7.5%
Cc1ccc(OC(=S)Nc2ccccc2)c(C)c1 | -15.2%
CC(=O)OCc1nc2ccccc2s1 | -1.6%
CC(NC(=O)COC(=O)c1ccco1)c1ccccc1 (centres undefined) | -4.5%

3 structures out of the list, sorted by molar mass, high to low:
SMILES | HPGD block
CC(C)C(=O)Nc1ccccc1C(=O)N/N=C/c1ccc([N+](=O)[O-])cc1 | -7.5%
CC(NC(=O)COC(=O)c1ccco1)c1ccccc1 (centres undefined) | -4.5%
Cc1ccc(OC(=S)Nc2ccccc2)c(C)c1 | -15.2%

The list is partial (hit frequency here may not be typical).
